Screening results as filed in PubChem BioAssay.
Tg IFNy HTS – T. gondii growth inhibition under IFN-gamma | 3.8% of 69,000 active | activity change, negative = inhibition, %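 (about 20 µM by stock and volumes)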 | Toxoplasma gondii growth in IFN-gamma-treated host cells; hits give low values; reference of the scale not given here;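 active = below -70%; inconclusive = fit judged invalid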;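 also: host cells are HeLa cells infected with Toxoplasma gondii; parasite growth read as luciferase light; one replicate is shown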
An asterisk follows results filed as active; ? = inconclusive; & = joins results of further samples. An excerpt; the hit share may differ from the screen's.

Start of the listing, in advance:
Structure	Tg IFNy HTS
CN(C)c1ccc(CNC(=O)c2cc3cc(S(=O)(=O)N(C)C)ccc3n2Cc2ccncc2)cc1	71.9
Cc1nc2c(c(=O)[nH]1)CCN(C(=O)CCN1C(=O)C3CCCCC3C1=O)C2 (stereo not given)	-11.0
CN(C)C(=O)C[C@@H]1CC[C@H]2[C@@H](COC[C@@H](O)CN2S(=O)(=O)c2ccccc2Cl)O1	-21.7

Main list (from the top)
Structure	Tg IFNy HTS
CN(C)c1ccc(CNC(=O)c2cc3cc(S(=O)(=O)N(C)C)ccc3n2Cc2ccncc2)cc1	71.9
Cc1nc2c(c(=O)[nH]1)CCN(C(=O)CCN1C(=O)C3CCCCC3C1=O)C2 (stereo not given)	-11.0
CN(C)C(=O)C[C@@H]1CC[C@H]2[C@@H](COC[C@@H](O)CN2S(=O)(=O)c2ccccc2Cl)O1	-21.7
Cc1ccc(CCNC(=O)CCC2Nc3c4ccccc4nc(=S)n3C2=O)cc1 (stereo not given)	23.7
CC(C)n1cc(C(=O)N(C2CCCC2)C(C(=O)NC2CCCCC2)c2ccccc2)cn1 (stereo not given)	13.3
CC(=O)OCc1c(C)c(C)c(C)c(C)c1C	-0.8
COc1ccc2c(c1)CCC/C2=N\NC(N)=S	-99.1*
COc1ccc(NC(=O)c2c(O)c3cccnc3[nH]c2=O)cc1	233.7
COc1cccc(CC(=O)Nc2ccc(-c3nc(-c4ccc(C)cc4)co3)cc2)c1	1.2
CCc1ncc(CN2CCC(CNC(=O)C3CCCCC3)C2)cn1 (stereo not given)	-15.5
O=C(NCCC1=CCCCC1)c1ccc(CSc2ncn[nH]2)o1	43.6
Cc1noc(C)c1NC(=O)N(C)C[C@@H]1Oc2cc(C#CCN(C)C)ccc2S(=O)(=O)N([C@@H](C)CO)C[C@@H]1C	77.2
CC12CCC(c3nnc4nc(-c5ccc(F)cc5)cn4c31)C2(C)C (stereo not given)	9.3
O=C(Cc1noc2ccccc12)NCc1ccccc1-n1ccnc1	13.3
COc1ccc(F)c(CN2CCC(NS(C)(=O)=O)CC2)c1Cl	3.7
Cc1cc(N2CCN(c3ncnc4c3CCNC4)CC2)n2ncnc2n1	-4.6
C#CCN(Cc1ccc(F)cc1)C(=O)C1CCCN(C(=O)N(C)C)C1 (stereo not given)	4.7
C[C@@H]1CN([C@@H](C)CO)C(=O)c2cc(NC(=O)C3CC3)ccc2O[C@H]1CN(C)S(=O)(=O)c1ccccc1	-0.4
Cc1ccc(-c2csc(-c3cccn3CC(=O)N3CCC4(CC3)OCCO4)n2)cc1	12.9
COc1ccc2[nH]c3c(c2c1)CCNC31C(=O)N(C)c2ccccc21 (stereo not given)	310.6
O=c1cc(CCn2cccn2)nc(-c2ccc(CN3CCNCC3)cc2)[nH]1	-1.5
O=C(NCc1cccnc1)c1ccccc1C(=O)Nc1sc2ccccc2c1Cl	-94.1*
CCOc1ccc(CCNc2nc(-c3nnc(-c4ccccc4)o3)nc3ccccc23)cc1OCC	103.2
COCC1(C(=O)N2CCc3c(nc(-c4ccccc4)[nH]c3=O)C2)CCC1	-35.6
COc1cc(/C=C/C2=NNC(=O)CC2)cc(OC)c1OC	-97.4*
CCOC(=O)C1CCN(c2nc(-c3ccc(OC)cc3)nc3ccccc23)CC1	-24.5
Cc1ccc(S(=O)(=O)Nc2ccc3c(c2)CC(=O)N([C@H](C)CO)C[C@H](C)[C@H](CN(C)S(=O)(=O)c2ccccc2)O3)cc1	-3.4
COC(=O)c1[nH]ncc1CN(C)Cc1cc(-c2ccccc2)no1	5.1
Clc1ccc(-c2nnnn2-c2cnccn2)cc1	90.7
CO[C@@H](CN(C)C(=O)c1cnccn1)[C@@H](C)CN([C@@H](C)CO)S(=O)(=O)c1ccccc1	-1.9
COc1cccc(CNC(=O)Cn2ncc3c(N4CCCCC4)ncnc32)c1	56.2
Cn1ccc2cc(S(=O)(=O)N3CCCC(C(=O)NCc4cccnc4)C3)ccc21 (stereo not given)	-23.2
Cc1noc(C)c1NC(=O)Nc1cccc2c1O[C@H](CN(C)Cc1ccc(C(=O)Nc3ccccc3N)cc1)[C@@H](C)CN([C@@H](C)CO)C2=O	-37.2
Clc1ccc(OCc2nnc(SCc3nnc(-c4ccccc4)o3)o2)c(Cl)c1	-26.3
CCOc1ccc(-c2nc(Cn3c(=O)c4c(C(=O)OC)cc(C)nc4n(C)c3=O)c(C)o2)cc1OC	-8.7
COC(=O)c1[nH]ncc1CN(C)C1CCCc2ccccc21 (stereo not given)	21.0
COC(=O)c1cc(C)nc2c1c(=O)n(Cc1nc(-c3ccccc3C)oc1C)c(=O)n2C	4.1
CC(C(=O)NC(Cc1ccsc1)c1cccnc1)N1C(=O)NC(C)(C)C1=O (stereo not given)	5.4
Cc1cccc(C(C(=O)NCc2noc(-c3ccco3)n2)N(C)C)c1 (stereo not given)	5.5
Cc1nc(N)ncc1C(=O)NCC(c1ccc(Cl)cc1)N1CCCCCC1 (stereo not given)	33.9
CCn1c(=O)c(-c2nc(-c3ccc(C)cc3C)no2)c(O)c2ccc(F)cc21	76.8
Cc1ccc(C(NC(=O)C2CCOCC2)c2ccncc2)cc1 (stereo not given)	32.0
C[C@@H]1C(=O)O[C@H]2[C@H](O)C34[C@H]5C[C@@H](C(C)(C)C)[C@]36[C@@H](OC(=O)[C@@H]6O)O[C@]4(C(=O)O5)[C@@]12O (stereo not given in full)	8.2
COC1CC2COCC(C1)N2Cc1cccc(C)c1 (stereo not given)	0.0
COc1ccccc1NC(=O)N1CC[C@@H]2[C@H]1c1cc(C#Cc3cccc(F)c3)ccc1N(C)[C@@H]2CO	7.1
O=c1c(Cc2ccccc2Br)c(-c2ccccc2)oc2ccccc12	-6.0
Cc1ccsc1[C@@H]1CCN(C(=O)c2nc3c(s2)CCCC3)C[C@H]1O	-11.8
COc1cccc(-c2nc(C)c(-c3ccc(SCc4ccc(Br)cc4)nn3)s2)c1	-46.1
Cc1nnc(Cn2nc(C3CCNCC3)n(Cc3ccccc3)c2=O)s1	-53.9
Cc1nn(CC(=O)NCc2cccs2)c(=O)c2nc(-c3ccccc3)sc12	-31.3

Continuation.
Structure	Tg IFNy HTS
Cc1cccc(NC(=O)c2ccc3ccc(N4CCN(CC5CC5)CC4)n3c2)c1	-1.1
CC(C)c1noc(C2CCCN(C(=O)c3cccc4ccnn34)C2)n1 (stereo not given)	88.0
Cc1[nH]c(=O)[nH]c(=O)c1CN1CCc2onc(-c3ccccc3F)c2C1	-27.7
O=C(C[C@H]1CC[C@@H]2[C@H](COC[C@H](O)CN2C(=O)c2ccccc2F)O1)NCc1ccc(Cl)c(Cl)c1	-41.9
CC(NC(=O)COc1ncnc2ccccc12)c1ccc2c(c1)CCC2 (stereo not given)	113.4
Cc1ccc2c(c1)c(CNc1nc(-c3ccncc3)nc3c1CNC3)nn2C	-16.4
COc1ccc(C(=O)NCCc2csc(-c3cccc(F)c3)n2)c(OC)c1	-81.1*
CC(=O)N1CCOCC2(C1)CN(C(=O)c1ccnnc1)CCO2 (stereo not given)	-36.4
CCc1cn[nH]c1C1CCN(C(=O)c2cc(OC)nc3ccccc23)CC1	-39.0
COCCCNC(=S)Sc1ccc(Cl)cc1	?
C[C@@H]1CN([C@H](C)CO)C(=O)c2cc(NS(=O)(=O)c3cn(C)cn3)ccc2O[C@@H](C)CCCCO[C@H]1CN(C)Cc1ccc2c(c1)OCO2	126.3
COc1ccc(CCCn2ncc3c2nc(N)n2nc(-c4ccco4)nc32)cc1	-44.3
Cc1ccccc1C(=O)Nc1cc(-c2cc(C(C)(C)C)oc2C)nn1C	2.1
Cc1ncsc1C(=O)NC1CCCN(C(=O)CCc2ccc(F)cc2)CC1 (stereo not given)	-36.7
CCCc1nnc2sc(-c3ccc(OC)cc3)nn12	-23.7
FC(F)(F)c1cc(Cc2nn[nH]n2)cc(C(F)(F)F)c1	2.0
FC(F)(F)C1CN(c2nc(-c3ccccc3)cs2)CCO1 (stereo not given)	6.6
COc1cc(C)c(S(=O)(=O)Nc2cccc(-c3nncn3C)c2)cc1C	14.0
COc1cccc(-c2ccc3c(C4CCCN4C(=O)C(F)(F)F)nnn3c2)c1 (stereo not given)	1.0
CC(CNC(=O)c1cc(C2CCOCC2)c2cnccc2n1)c1ccccc1 (stereo not given)	1.3
O=C(Cn1c(=O)cc(C(=O)N2CCCCC2)c2ccccc21)NCc1ccccc1Cl	-0.8
O=c1[nH]cc(-c2ccc(Cl)cc2)cc1CNc1cccc(CN2CCOCC2)c1	266.2
C=CCN(Cc1ccccn1)Cc1cn[nH]c1-c1ccc(F)cc1	7.7
O=c1ccc2cc(S(=O)(=O)NCC3CCN(CCc4cccs4)CC3)ccc2[nH]1	-3.5
O=C(NCc1c(Cl)cccc1Oc1ccccc1)c1ccc2nccnc2c1	15.4
COc1ccccc1C(=O)Nc1ccc(-c2nc(-c3ccc(C)cc3)co2)cc1	-55.2
FC(F)(F)C1CN(Cc2nnc(C3CC3)o2)CCO1 (stereo not given)	-0.1
Cc1cc(C)n(CCNc2ncnc3sc(C)c(C)c23)c(=O)n1	5.0
Cc1noc(C)c1NC(=O)Nc1ccc2c(c1)C(=O)N([C@@H](C)CO)C[C@H](C)[C@@H](CN(C)Cc1ccc3c(c1)OCO3)OCCCC[C@H](C)O2	157.1
Cc1cccc(C2CCCN2S(=O)(=O)c2cn(C)cn2)n1 (stereo not given)	-1.5
CC1CCCCN1S(=O)(=O)c1ccc(NC(=O)Cn2cnc3ccccc3c2=O)cc1 (stereo not given)	-44.1
Cc1c(NCc2cccnc2)cccc1C(=O)NCc1ccccc1Cl	-5.7
O=C1CCC(=O)N[C@@H](c2ccccc2)C/C=C\CCN1	-20.9
CCc1cnc(N2CCC3(CC(Oc4ncccn4)CO3)C2)nc1 (stereo not given)	11.7
CCCCCCCCCCCCC/C=C/[C@@H](O)[C@H](COC1OC(CO)C(OC2OC(CO)C(OC3OC(CO)C(O)C(OC4OC(CO)C(O)C(O)C4O)C3NC(C)=O)C(OC3(C(=O)O)CC(O)C(NC(C)=O)C(C(O)C(O)CO)O3)C2O)C(O)C1O)NC(=O)CCCCCCCCCCCCCCCCC (stereo not given in full)	12.6
O=C(CC(=O)Nn1cnnc1)Nn1cnnc1	6.3
O=C(N[C@@H]1C=C[C@@H](CC(=O)N2CCN(c3ccccc3)CC2)O[C@H]1CO)c1ccccc1	-12.6
Cc1noc(C2CCCN2C(=O)c2cccc(CC3CCNCC3)c2)n1 (stereo not given)	6.2
O=C(CCCC(=O)N1C2CCC1CC(c1ccc(F)cc1)C2)N1CCc2ccccc21 (stereo not given)	3.6
Cc1ccc(N2C(=O)c3ccc(Oc4ccc(N)cc4)cc3C2=O)cc1	33.9
CC(=O)N1CCC(N2CCCC2c2nc(-c3ccncc3)no2)CC1 (stereo not given)	-4.5
COc1c(F)ccc(C(=O)N2C[C@H](N)C[C@H]2C(=O)NC(C)C)c1F	5.5
CCOc1ccc(-c2nc(CSc3nc4c(=O)[nH]c(C)nc4n3C)c(C)o2)cc1	-9.6
COc1cccc(-c2cncc(C3CCCN(C(=O)Cc4ccccc4)C3)n2)c1 (stereo not given)	1.0
CN(C)CCN1C[C@@H]2CN(S(=O)(=O)Cc3ccccc3)C[C@H]2C1=O	2.0
Cc1ccsc1C(=O)N1CC(C(=O)N2CCCC2)C2(CCOCC2)C1 (stereo not given)	0.8
COc1ccc(-c2noc(C3CN(S(=O)(=O)CCc4ccncc4)CCO3)n2)cc1 (stereo not given)	163.5
COCCN1C(=O)N(C2Cc3ccccc3C2)C(=O)C12CCN(C/C(C)=C/c1ccco1)CC2	25.8
Cc1ccccc1-c1noc(CN(C)Cc2cc(C(C)(C)C)n[nH]2)n1	-8.1
CN(C)C(=O)COCC1CN(Cc2ccncc2)Cc2ccnn2C1 (stereo not given)	6.2

The list continues.
Structure	Tg IFNy HTS
CN(Cc1ccco1)c1nc(-c2ccc(Cl)cc2)nc2ccccc12	-54.7
C/C=C/c1ccc([C@@H]2[C@H](CO)N(C(=O)c3ccccc3)C23CN(C(C)=O)C3)cc1	133.9
Cc1c(-c2cnccn2)ssc1=S	-0.8&-8.3
Cc1ccccc1-c1ncc(CN(C)Cc2n[nH]c3c2CCC3)s1	14.2
O=C(c1ccc(F)cc1)N1CCC2(CC1)CCN(c1cncnc1)C2=O	-4.1
Cc1cc(C(=O)N2C[C@H]3C[C@@H]4[C@@](C2)(CN(Cc2ccc(Cl)cc2)S4(=O)=O)O3)no1	-7.0
Cc1ccc(CNC(=O)Cn2c(=O)c(S(=O)(=O)c3ccccc3)cc3ccccc32)cc1	10.8
CS(=O)(=O)N1CC2(C1)[C@H](c1ccccc1)[C@H](CO)N2Cc1ccccc1	-23.4
CCOc1ccc(-c2nc(Cn3nnc(C(=O)Nc4ccccc4C)c3C)c(C)o2)cc1OC	89.3
Cc1nc(CN2CCC3(CC2)CC(OCCO)c2ccccc23)cs1 (stereo not given)	7.3
CCC(C)Nc1cnc2c(c1)c(NC(C)=O)c(C(=O)OC)n2CC1CCCO1 (stereo not given)	20.0

An excerpt from above in order of length of the SMILES, descending:
Structure	Tg IFNy HTS
C/C=C/c1ccc([C@@H]2[C@H](CO)N(C(=O)c3ccccc3)C23CN(C(C)=O)C3)cc1	133.9
Cc1ccc(CNC(=O)Cn2c(=O)c(S(=O)(=O)c3ccccc3)cc3ccccc32)cc1	10.8
CCC(C)Nc1cnc2c(c1)c(NC(C)=O)c(C(=O)OC)n2CC1CCCO1 (stereo not given)	20.0
Cc1ccccc1-c1ncc(CN(C)Cc2n[nH]c3c2CCC3)s1	14.2
Cc1c(-c2cnccn2)ssc1=S	-0.8&-8.3
